# TRPML1 blocker: inhibitors of human TRPML1 channel | activity change, negative = inhibition, % (concentration not given with the values) | AID 624415 | TRPML1-inducible cells, Ca2+ dye fluorescence, FDSS; active compounds read low; inhibition of EC80 agonist-evoked calcium signal | actives 0.02% (n = 390,000) | Q9GZU1; in the data active means activity change below about -50%; inconclusive means about -30% to -50%; inactive means above about -30%;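 note: stimulus is agonist 54-4 at its EC80 concentration; % is set by controls: 0 for no effect and ±100 for the full control effect; the text of the record puts the active cut at -80%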
# Target sequence (Q9GZU1 whole entry, looked up): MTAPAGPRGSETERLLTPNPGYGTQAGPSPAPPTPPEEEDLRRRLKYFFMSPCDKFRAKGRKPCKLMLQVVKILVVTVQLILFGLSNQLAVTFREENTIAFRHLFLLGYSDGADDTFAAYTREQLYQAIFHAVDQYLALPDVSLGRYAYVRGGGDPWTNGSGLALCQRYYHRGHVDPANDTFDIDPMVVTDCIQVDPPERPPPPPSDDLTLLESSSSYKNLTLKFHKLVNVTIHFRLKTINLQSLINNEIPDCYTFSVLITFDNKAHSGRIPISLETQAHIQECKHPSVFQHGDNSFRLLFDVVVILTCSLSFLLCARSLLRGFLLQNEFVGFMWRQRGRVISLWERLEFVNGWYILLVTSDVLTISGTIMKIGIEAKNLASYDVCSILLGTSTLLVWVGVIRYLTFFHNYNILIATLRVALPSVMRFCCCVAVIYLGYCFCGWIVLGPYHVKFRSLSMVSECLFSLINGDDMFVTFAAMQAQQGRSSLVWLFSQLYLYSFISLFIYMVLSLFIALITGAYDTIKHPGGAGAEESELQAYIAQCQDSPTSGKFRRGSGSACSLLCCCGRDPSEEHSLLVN
#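 Calcium fluorescence in TRPML1-DL cells induced overnight with Tet: a 110 s read after compound pin addition, then a 110 s antagonist read after challenge with 54-4 at 4 uM final (EC80).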
# TRPML1 agonist: human mucolipin-1 channel agonism; AID 624414; activation, % (test concentration not listed); Q9GZU1; actives 0.12% (n = 410,000); TRPML1-expressing cells, Ca2+ dye fluorescence, FDSS; host cell line not named in the record; reference of the full effect not given here; in the data active = activation above about 50%; inconclusive = about 30% to 50%; inactive = below about 30%; note: 0% is about no effect; the text of the record puts the active cut at 80%
#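 Tet-induced TRPML1-DL cells, 1,500 per well, cultured overnight, were loaded with a no-wash Ca2+ dye for 45–90 min. Calcium fluorescence was recorded on the FDSS for 110 s after compound addition, before the EC80 agonist (4 uM 54-4) was added.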
# gsp agonist: gsp mutant agonism. gsp mutant cells, cAMP HTRF, 30 min; control for the full effect not named in the record. Potency, µM (top dose mostly 76.9 µM), for the others: at the top dose activation (cAMP increase), usual class: activators. actives 0.13% (n = 340,000); active = well fitted activation curve with a large enough effect; inconclusive = small, poorly fitted or top-dose-only effect, or another doubt; inactive = no such curve, though single readings can be large or run the other way; cell line not stated here;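 note: phosphodiesterase inhibitor Ro 20-1724 added with compounds to block cAMP breakdown; potency is the fitted concentration of half-maximal effect; nearly all actives have a fitted effect of over 60% in size; about a fifth of the inactives were tested at one dose only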
#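 Cells stably selected in G418 were plated at 2000/well, grown 16-24 hr, then given compounds in DMSO with the PDE inhibitor […] (300 uM solution added) for 30 min at 37C; cAMP was read by HTRF.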
# gsp antagonist: antagonizes gsp, the McCune-Albright syndrome mutation. AID 624288. gsp-mutant cells, cAMP HTRF, 30 min; control for the full effect not named in the record. actives 0.4% (n = 340,000). Potency, µM (highest dose often 76.9 µM), for the others: top-dose activity change, negative = inhibition, hits mostly inhibitors; active = falling curve of any shape with a large fitted effect; inconclusive = falling curve, mostly with a smaller effect; inactive = flat or rising curve; cell line not stated here;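 note: intracellular cAMP measured with PDE inhibitor Ro 20-1724 present during compound exposure; potency is the fitted concentration of half-maximal effect; % is set by controls: 0 for no effect and ±100 for the full control effect; nearly all actives have a fitted effect of over 65% in size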
#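 HTRF cAMP read-out (cAMP-d2 plus anti-cAMP antibody-K in lysis buffer, 30 min RT). Before lysis, cells are exposed to compounds with […] for 30 min at 37C in DPBS containing Ca/Mg, BSA and Tween 20.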
# ClpP mod: qHTS Assay for Activators of ClpP | ATP-dependent Clp protease proteolytic subunit (Bacillus subtilis (strain 168)), P80244 | purified B. subtilis ClpP, FRET peptide cleavage, 20 min | Potency, µM (series often up to 57.5 µM), without a hit: at the top dose activity change, negative = active | actives 1.9% (n = 340,000) | AID 651965, 2013; active = well fitted falling curve with a large enough effect; inconclusive = small, poorly fitted or top-dose-only effect; inactive = no such curve, though single readings can be large or run the other way; note: potency is the fitted concentration of half-maximal effect; the source files actives as falling curves though it sought activators and does not explain the sign; nearly all actives have a fitted effect of over 65% in size; many hits overshoot -100%
# Target sequence (P80244 whole entry, looked up): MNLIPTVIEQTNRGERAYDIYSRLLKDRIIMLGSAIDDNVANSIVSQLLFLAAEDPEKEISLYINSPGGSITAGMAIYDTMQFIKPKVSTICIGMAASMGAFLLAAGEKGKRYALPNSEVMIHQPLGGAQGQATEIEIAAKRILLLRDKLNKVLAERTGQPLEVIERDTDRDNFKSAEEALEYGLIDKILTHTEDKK
#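 FRET quenching reversal measured ClpP activation: 10 microg/mL B. subtilis ClpP at pH 8 with the FRET-FV decapeptide, read at 430 nm after 320 nm excitation. The 20-min minus 0-min signal was scaled between DMSO/no-enzyme wells and ADEP (5.8 microM final).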
# Menin MLL FP FL: displaces fluorescein MLL peptide from human menin. Fluorescence polarization, fluorescein-MLL peptide displacement from menin. FP activity change, % at 61.4 µM. 290,000 tested, under 10 active. AID 1766; inconclusive = falling polarisation curve, or a change in total fluorescence; inactive = total fluorescence flat and polarisation flat or rising; no compound was filed as active; the % refers to the polarisation; negative = inhibition;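 note: % of control where 0% means no effect; inhibitors lower the polarisation; unlabelled MLL peptide was the positive control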
# * hit, by the source's call; ? = inconclusive; nt = no result given; [ ] = remark or other dose.
SMILES,TRPML1 blocker,TRPML1 agonist,gsp agonist,gsp antagonist,ClpP mod,Menin MLL FP FL
CC1=C(c2ccc(C(C)C)cc2)S(=O)(=O)NC1=NCc1ccc(OC(C)C)cc1,-10,1.8,nt,nt,0.8%,nt
O=c1[nH]c(CNCc2cccnc2)nc2ccccc12,7,0.0,22%,7%,nt,0.7
O=C1/C(=C\Nc2ccc(Cl)cc2)CCN1c1ncccn1,-1,0.5,11%,-7%[15.4 µM],-12%,6.9
CCOC(=O)CC(NC(=O)c1cc2cc(Cl)ccc2oc1=O)c1ccc(C)cc1 (configuration not stated),-8,5.3,nt,nt,-20%,nt
Cn1nccc1C(=O)NC1CCCc2c1cnn2-c1ccccc1F (configuration not stated),2,-0.2,3%,?,2.7%,nt
CCNc1nc(NC(C)C)nc(NC(C)(C)C)n1,-20,-0.6,?,3%,0.6%,6.0
CCC(O)C1CCN(C(=O)c2ccc(OC3CCN(Cc4ccccn4)CC3)cc2)CC1 (configuration not stated),27,-0.2,8%,0%,0.5%,nt
C[C@H](O)[C@@H]1C(=O)N2CCc3ccc(-c4ccccc4)cc3[C@@H]2C[C@@H]1N(C)C(=O)c1ccc(C#N)cc1,-3,-0.9,nt,-2%,-0.4%,nt
COCCCN(Cc1cc(OC)c(OC)c(OC)c1)C(=S)Nc1cccc(Cl)c1,-14,0.0,-18%,nt,-2.1%,nt
Cc1noc(C(=O)Nc2cccc(Cl)c2)c1Cl,nt,nt,2%,6%,-13%,-4.8
CC1(C)NC(=O)N(CCOCCOc2c(Cl)cc(Cl)cc2Cl)C1=O,11,0.4,-67%[inhibitor],-29%,-2.0%,2.7
COC(=O)c1c(SC)nc2ccccc2c1OCc1ccccc1C,15,0.0,nt,nt,-4.8%,nt
COc1ccc(Cl)cc1NC(=S)Nc1cccnc1,14,-0.1,-10%,-3%,nt,-1.7
COc1ccc(OC)c(CN2CCN(C(=O)c3cccc(S(=O)(=O)Nc4ccc(F)cc4)c3)CC2)c1,61,1.9,6%,-16%,0.8%,nt
CS(=O)(=O)N1CCC(C(=O)NCc2ccncc2)CC1,-17,0.4,4%,4%,4.2%,3.1
Clc1ccc(CSc2ncn[nH]2)cc1,25,2.8,-26%,1%,-0.7%,-2.5
COc1ccc(S(=O)(=O)Nc2ccc3c(c2)n(C)c(=O)n3C)cc1OC,-15,-0.1,?,-3%,nt,-0.4
O=C(NCc1ccccc1)C1=C[C@H](c2csc3ccccc23)C[C@H](OCCCCO)O1,6,-0.9,nt,-23%,-0.8%,10
O=C(O)c1cc(-c2cccnc2)nn1-c1ccccn1,0,-0.7,-17%,11%,0.2%,6.0
Cc1ccc(-c2nc3ccccn3c2Nc2c(C)cccc2C)o1,8,2.3,nt,nt,3.6%,nt
Cc1ccc(S(=O)(=O)n2ccc3c(OCCOCCNCc4ccc(F)cc4)cccc32)cc1,25,-0.4,-2%[15.4 µM],9%,-0.3%,7.7
S=C(NCc1ccc2c(c1)OCO2)NC1CCN(Cc2ccccc2)CC1,2,0.4,9%[15.4 µM],6%,nt,5.1
O=C(Nc1ccc(F)cc1F)c1ccc(COc2c(F)c(F)cc(F)c2F)o1,12,5.5,1%,9%,15%,1.9
O=c1[nH]c(SCc2nc3ccccc3c(=O)n2-c2ccccc2)nc2ccccc12,35,2.3,?,21%,-0.9%,1.5
CCOC(=O)c1nnn2c1nc(N(CC)CC)c1ccccc12,6,5.3,14%[15.4 µM],-4%,nt,0.3
Cc1cc(Nc2ccc(C(=O)O)c(O)c2)n2ncnc2n1,-1,-0.6,nt,nt,-1.6%,nt
O=C(NC(c1ccccc1)c1ccccc1)C1CCCN(S(=O)(=O)c2cnc[nH]2)C1 (configuration not stated),-10,0.1,5%,3%,2.0%,-3.4
COc1cc([N+](=O)[O-])ccc1NC(=O)CN1C(=O)NC2(CCCCC2C)C1=O (configuration not stated),nt,nt,-5%,0%,-1.4%,nt
CC1CCN(C(=O)CN2c3cccc4cccc(c34)S2(=O)=O)CC1,-9,0.0,-3%,0%,-14%,nt
CC1CCCC(NC(=O)CCCn2ncn3c(cc4occc43)c2=O)C1C (configuration not stated),-19,-0.7,-2%,10%,-1.3%,?
COc1ccc(CN2CCCC(CO)(Cc3ccc(F)cc3)C2)c(OC)c1OC (configuration not stated),0,0.6,?,-3%,-0.1%,-0.2
CCCc1ccc(Oc2cn[nH]c2-c2ccc(O)cc2O)cc1,-1,0.5,9%,-4%,-4.4%,0.5
CN1CCN(Cc2nc3c(c(=O)[nH]c(=O)n3C)n2Cc2c(F)cccc2Cl)CC1,25,-0.2,24%,4%,0.2%,-6.1
CCCc1nc2ccc(NC(=O)c3cccs3)cc2c(=O)n1Cc1ccc(Cl)cc1,-1,-0.7,-19%,-14%,?,0.5
Cc1cc2ncn(CCC(=O)NC(C)(C)C)c2cc1C,32,-0.5,13%[15.4 µM],9%,nt,2.7
CCn1[nH]c(=O)c(=Nc2c(C)n(C)n(-c3ccccc3)c2=O)cc1-c1ccc(Cl)cc1,-5,1.3,-5%,?,-1.9%,0.3
CC(=O)Oc1ccc(C)cc1-n1nc2ccccc2n1,0,2.6,21%,-26%,-12%,0.0
C(=C\c1ccccc1)/CN1CCN(C(c2ccccc2)c2nnnn2Cc2ccccc2)CC1 (configuration not stated),14,1.1,nt,nt,0.5%,nt
O=C(ONC1=NCCCCC1)c1ccc([N+](=O)[O-])cc1,11,1.1,1%[15.4 µM],18%,nt,4.1
COc1cccc(CC2(CO)CCCN(C(=O)c3cc[n+]([O-])cc3)C2)c1 (configuration not stated),-13,0.2,1%[15.4 µM],11%,nt,-1.4

# 3 compounds already listed, ordered by the value under gsp antagonist, rising.
SMILES,TRPML1 blocker,gsp agonist,gsp antagonist,Menin MLL FP FL
CCOC(=O)c1nnn2c1nc(N(CC)CC)c1ccccc12,6,14%[15.4 µM],-4%,0.3
COc1ccc(S(=O)(=O)Nc2ccc3c(c2)n(C)c(=O)n3C)cc1OC,-15,?,-3%,-0.4
C[C@H](O)[C@@H]1C(=O)N2CCc3ccc(-c4ccccc4)cc3[C@@H]2C[C@@H]1N(C)C(=O)c1ccc(C#N)cc1,-3,nt,-2%,nt

# The results go on.
SMILES,TRPML1 blocker,TRPML1 agonist,gsp agonist,gsp antagonist,ClpP mod,Menin MLL FP FL
CCC(=O)c1ccc(N2CCN(C(=O)Cc3ccccc3)CC2)c(F)c1,1,-0.1,-5%,-11%,1.6%,-1.8
CCCCCCN1C=CC=C/C1=C\C=C(C#N)C#N,-2,11,5%[15.4 µM],-22%,nt,?
O=C(N/N=C\c1ccc2c(c1)OCO2)c1cncc(Br)c1,12,1.5,6%,0%,nt,1.3
Cc1ccccc1OCCC(=O)Nc1ccc(S(=O)(=O)N(C)C2CCN(C)CC2)cc1,2,0.4,2%,7%,-2.7%,nt
CCOc1ccc(-c2nc(SCC(=O)NCCCOC)c(-c3ccccc3)[nH]2)cc1,27,-0.5,nt,nt,-17%,nt
COc1ccc(CNC(=O)CCc2nc(-c3ccccc3F)no2)c(OC)c1,-18,-0.8,1%,-15%,-4.1%,-1.3
CN(C)c1ccc(/C=C/c2nc3ccccc3c(=O)[nH]2)cc1,-11,-0.1,?,-2%,0.9%,?
CCN(CC)CCCN1C(=O)C2C(C(=O)Nc3ccc(C(C)C)cc3)C3C=CC2(O3)C1C(=O)NC1CCCCC1 (configuration not stated),-12,-0.2,-9%,15%,nt,1.0
Cc1ccc(-n2c(Cc3cccs3)nnc2SCC(=O)OC(C)C)cc1,49,1.6,-16%,-17%,-1.5%,2.5
CCOC(=O)C(C)Sc1nc2c(cnn2-c2ccc(F)cc2)c(=O)[nH]1 (configuration not stated),38,0.0,-6%,5%,nt,2.1
CCS(=O)(=O)N1CCC(C(=O)Nc2ccccc2OC)CC1,-12,-0.3,23%,6%,2.1%,-2.8
CCOc1ccc(C2NC(=O)NC(C)=C2[N+](=O)[O-])cc1OC (configuration not stated),-8,-1.1,-6%[15.4 µM],10%,nt,1.8
CSc1cccc(N2C(=O)N(Cc3ccc([N+](=O)[O-])cc3)c3ccccc3S2(=O)=O)c1,6,-0.3,nt,nt,1.6%,nt
CCCN1CCN(C(=O)Cn2ncc3c([nH]c4ccc(C)cc43)c2=O)CC1,0,-0.5,5%,4%,3.9%,nt
COc1ccc(OC)c(N(CC(=O)N2CCCC2)S(=O)(=O)c2ccc(OC)c(OC)c2)c1,-12,0.3,1%,1%,-0.1%,1.1
C#CCN1C=CC(=O)[C@@H](OC(=O)Nc2ccc(Cl)cc2)[C@H]1c1ccccc1Br,1,0.1,nt,?,1.2%,nt
CC(Sc1nccn1C)C(=O)c1ccc(Br)cc1 (configuration not stated),14,-0.4,0%,-20%,nt,1.8
O=C(C1CCC1)N1CCN(S(=O)(=O)c2ccccc2)CC1,-12,-0.1,-61%[15.4 µM],6%,nt,nt
COc1cc(/C=C/c2ccc3cccc(O)c3n2)cc(Cl)c1OC,46,3.5,-27%,1%,nt,6.1
COc1ccc(N(C)C(=O)Cn2cc(S(=O)(=O)N3CCN(c4ccccc4F)CC3)c3ccccc3c2=O)c(OC)c1,-7,-0.1,nt,nt,-13%,nt
Cc1ccc(C(=O)N(c2ccccn2)C(C)c2ccco2)cc1 (configuration not stated),-1,0.0,-4%,-10%,-1.4%,-0.2
CCOC(=O)c1nn(-c2ccc(Cl)cc2)c(C)cc1=O,-9,-0.2,50%,-25%,-0.3%,4.4
CC(=O)N1CCc2ccc(S(=O)(=O)N3CC(C)OC(C)C3)cc21 (configuration not stated),21,0.8,4%,7%,-3.4%,-0.7
CC(=O)N1c2ccc(S(=O)(=O)N3CCCCC3)cc2CC1C(=O)Nc1ccc(C)cc1 (configuration not stated),-3,-1.1,30%,?,-0.2%,nt
CC(=O)/C(N=Nc1ccc(C(=O)O)cc1[N+](=O)[O-])=C(\C)O,-1,-0.1,4%,9%,0.5%,1.0
O=C(COC(=O)c1c(F)cccc1F)Nc1ccc2c(c1)OCO2,-10,-0.6,0%[15.4 µM],7%,nt,nt
O=c1c2c(n3nnnc3n1Cc1ccccc1)-c1ccccc1CC21CCCC1,6,0.3,-3%,9%,-6.9%,?
Cc1ccc(CN2CCC(Oc3ccc(C(=O)NCc4ccccn4)cc3)CC2)o1,8,-0.3,-30%[inhibitor],2%,0.1%,-1.6
CCOc1ccc(Nc2ncnc3c2cnn3-c2ccccc2)cc1,31,-0.4,6%,8%,-18%,4.3
CCCCNC(=O)c1onc(CSc2cccc(OCC)c2)c1C(=O)O,74,-0.3,nt,-16%,0.1%,5.2
Cc1ccc(CSCCNC(=O)CSc2ccccc2)cc1,-15,0.3,14%[15.4 µM],-13%,0.9%,1.0
Cc1ccc2c(CC(=O)N(Cc3cccc(Cl)c3)C3CCS(=O)(=O)C3)coc2c1 (configuration not stated),-9,0.5,nt,nt,0.1%,nt
Cc1ccc(S(=O)(=O)N2CCC(C(=O)OCC(=O)N3CCCC3=O)CC2)cc1C,29,1.1,-58%[inhibitor],10%,1.4%,nt

# Source: PubChem
